# Source: PubChem BioAssay (several laboratories)
# AF4-AF9 inh: inhibitors of human MLL-AF4/AF9 interaction | P42568 | AlphaScreen, biotin-AF4 peptide binding to FLAG-AF9 | 0.47% of 350,000 active | inhibition, % at 10 µM;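 active = every replicate reaching a set inhibition limit, whatever the replicate mean, cut at about 25% in these data; inconclusive = mean inhibition reaches that limit but some replicates miss it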;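 also: 0% = plate neutral control median and 100% = total signal loss; the record names both 10 and 1 µM as test concentration; the first replicate is given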
# Target sequence (P42568 whole entry, looked up): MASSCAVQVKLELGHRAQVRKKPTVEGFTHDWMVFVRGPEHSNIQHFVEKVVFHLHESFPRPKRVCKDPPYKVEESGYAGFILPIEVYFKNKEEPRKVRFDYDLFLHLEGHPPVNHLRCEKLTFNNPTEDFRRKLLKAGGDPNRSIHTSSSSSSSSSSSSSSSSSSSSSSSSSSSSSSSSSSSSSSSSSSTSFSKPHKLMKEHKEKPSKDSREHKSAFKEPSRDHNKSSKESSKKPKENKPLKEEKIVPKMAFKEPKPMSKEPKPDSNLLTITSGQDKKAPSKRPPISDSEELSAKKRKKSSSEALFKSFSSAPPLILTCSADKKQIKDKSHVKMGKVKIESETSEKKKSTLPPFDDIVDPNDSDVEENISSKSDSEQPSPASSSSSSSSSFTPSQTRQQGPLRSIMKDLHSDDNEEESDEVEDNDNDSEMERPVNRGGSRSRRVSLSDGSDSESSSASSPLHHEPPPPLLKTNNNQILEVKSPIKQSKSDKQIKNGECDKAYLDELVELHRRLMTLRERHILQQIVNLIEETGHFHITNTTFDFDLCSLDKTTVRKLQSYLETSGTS
# HNF4A DNA FP: change in binding of human HNF4 alpha to DNA. P41235. HNF4a-FITC DNA binding, fluorescence polarization, 1 h. activity change, % at 10 µM. 0.3% of 360,000 active. AID 1224865; in the data active = activity change above about 30%, passing the limit was not always enough;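 also: controls were the assay level and a saturating level of protein; the project sought stronger binding though the title names inhibitors; some compounds called inactive have numbers as strong as hits; positive values seem to mean higher polarization but the record does not say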
# FGF22 binding: shifts melting point of recombinant human FGF22; Q9HCT0; recombinant FGF22 thermal shift, SYPRO orange fluorescence; percent of sucrose octasulfate shift, DMSO zero; calls only at 9.99 µM; 1.5% of 340,000 active;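 active = melting point raised past a set limit in the mean and every replicate; inconclusive = no clear call; three in four hits are not shown here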
# Target sequence (Q9HCT0 whole entry, looked up): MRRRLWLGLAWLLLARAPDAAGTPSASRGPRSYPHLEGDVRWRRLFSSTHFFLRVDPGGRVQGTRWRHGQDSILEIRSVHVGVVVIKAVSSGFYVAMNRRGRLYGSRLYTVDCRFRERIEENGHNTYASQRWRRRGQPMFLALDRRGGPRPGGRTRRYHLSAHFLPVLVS
# Vif A3G: HIV-1 Vif–A3G interaction blockers – biochemical, TR-FRET, GST-Vif 1-94, biotin-A3G peptide, dose response retest, primary screen (AID 1117319); TR-FRET GST-Vif / biotin-A3G peptide binding; higher % means a stronger effect; test concentration not given here; strong numbers were not always called active; one-dose inhibition, %; IC50 in µM for titrated hits; 0.57% of 260,000 active;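 active = above the screen mean plus three standard deviations and confirmed in dose response; inconclusive = results disagree or hit not tested in dose response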;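 also: Vif residues 1-94 fused to GST binding biotinylated APOBEC3G peptide 110-148; 0% = full assay without inhibitor and 100% = GST in place of GST-Vif; retest series ran down from 100 µM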
# RanGTP-Impb inh: inhibitors of RanGTP-importin-beta interaction, primary screen, biochemical, FRET, CFP-Ran, YFP-importin-beta, homogeneous. inhibition, % (concentration not given with the values). 1.1% of 300,000 active. cell-free CFP-Ran/YFP-importin-beta FRET ratio;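 active = most replicates above 15%; inconclusive = exactly half above 15%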;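 also: 0% = DMSO wells and 100% = Ran loaded with GDP instead of GTP; wells of about 40 µL received 100 nL stock; the first replicate is given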
# E coli growth: inhibitors of Escherichia coli growth. OD600, 23 h; stronger effect = lower value. AID 1053175. 0.21% of 330,000 active. OD600 absorbance (concentration not given with the values);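 active = OD600 absorbance below the run mean of sample wells minus 3.6 SD, in any replicate, cut at about 0.56 in these data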;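 also: stock transfer was 300 nL into about 60 µL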
# UCH37 inh: blocks the human deubiquitinase UCH37. purified proteasome/UCH37, Ub-AMC cleavage fluorescence. inhibition, % (test concentration not listed). 0.33% of 330,000 active;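 active = mean of two replicates above 20%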;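 also: 0% = compound-free wells with enzyme and 100% = wells lacking proteasome; stock transfer was 100 nL into about 20 µL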
# Target sequence (Q9Y5K5 whole entry, looked up): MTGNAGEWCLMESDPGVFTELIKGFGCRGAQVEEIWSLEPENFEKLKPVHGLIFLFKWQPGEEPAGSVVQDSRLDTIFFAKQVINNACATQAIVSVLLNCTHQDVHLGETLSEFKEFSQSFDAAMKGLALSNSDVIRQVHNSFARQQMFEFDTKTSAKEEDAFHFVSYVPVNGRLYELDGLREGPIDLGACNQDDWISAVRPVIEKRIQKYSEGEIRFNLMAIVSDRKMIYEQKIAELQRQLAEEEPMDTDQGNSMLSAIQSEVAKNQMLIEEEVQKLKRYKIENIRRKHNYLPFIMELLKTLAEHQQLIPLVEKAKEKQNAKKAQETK
#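 Material: Human UCH37 enzyme supplied as purified proteasome complex | Schedule: 30 min preincubation with enzyme, 25 min cleavage at room temperature | Detection: AMC fluorescence 355/460 nm | Measure: % inhibition of Ub-AMC cleavage fluorescence | Controls: Wells without proteasome as full block, compound-free enzyme plus substrate as uninhibited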
# The depositor's hits bear a star; i = inactive; ? = inconclusive; · = not tested or not shown; & = joins results of further samples. Only part of the results is shown, so the mix of outcomes need not match the whole.
SMILES,AF4-AF9 inh,HNF4A DNA FP,FGF22 binding,Vif A3G,RanGTP-Impb inh,E coli growth,UCH37 inh
COc1ccc(C(=O)C2=NN(C(C)=O)CC2c2ccco2)cc1 (centres undefined),-4.5,-0.4,i,14%,5.2,0.7,6.1
COc1nc2ccc(C)cc2cc1-c1noc(-c2ccccc2)n1,·,14,·,2%,0.0,0.73,-74
Cn1c(CCN2CCCCCC2)nc2cc(NC(=O)Nc3ccccc3)ccc21,·,-0.1,·,-9%,-5.4,0.7,3.1
CC(NS(=O)(=O)OCC(Cl)(Cl)Cl)c1ccc(C(C)(C)C)cc1 (centres undefined),-4.1,-1.8,i,·,0.7,0.64,2.2
COc1ccc(-c2noc(CN(C(=O)c3ccc4c(c3)OCO4)C(C)C)n2)cc1,-0.8,1.4,i,-7%,-1.1,0.7,-0.7
CC1CC(=O)C2=C(C1)Nc1nc3ccccc3n1C2c1cccnc1 (centres undefined),0.1,1.1,i,8%,1.3,0.71,i
O=C(Cc1ccccc1)Nc1cccc([N+](=O)[O-])c1,2.2,-2.0,i,6%,0.8,0.67,1.7
Cc1cc(-c2n[nH]c(=S)n2-c2ccc(F)cc2)nn1C,-1.6,1.9,i,·,4.0,0.69,-3.2
Cc1c(C(=O)O)c(-c2ccccc2)nn1-c1ccccc1,·,0.1,·,1%,1.9,0.72,4.1
C(=C\c1ccccc1)/CSc1nc2ncccc2[nH]1,-3.3,3.0,i,3%,-0.1,0.67,3.0
CC1=C(C(N)=O)C(c2ccc(Cl)cc2)n2nc(CCCO)nc2N1 (centres undefined),-0.6,-3.6,i,2%,-2.6,0.69,1.4
COc1ccc(-c2c(C#N)c(N)nc3c2CCCCCC3)cc1OC,·,3.5,·,2%,0.6,0.7,-67
CC(=O)NC(c1ccccc1)c1nc(-c2cccc(C#N)c2)cs1 (centres undefined),-0.2,-1.3,i,·,·,·,·
O=C(Nc1ccnn1C1CCN(C(=O)c2ccc(F)c(Cl)c2)CC1)C1CC1,-0.9,0.0,i,2%,?,0.72,4.4
Cc1cc(OCCCC(=O)NC2=NCCS2)ccc1Cl,·,3.6,·,-5%,-0.2,0.71,-2.0

# The final two entries of the part above are carried over, then new ones follow:
SMILES,AF4-AF9 inh,HNF4A DNA FP,FGF22 binding,Vif A3G,RanGTP-Impb inh,E coli growth,UCH37 inh
O=C(Nc1ccnn1C1CCN(C(=O)c2ccc(F)c(Cl)c2)CC1)C1CC1,-0.9,0.0,i,2%,?,0.72,4.4
Cc1cc(OCCCC(=O)NC2=NCCS2)ccc1Cl,·,3.6,·,-5%,-0.2,0.71,-2.0
Cn1ncc2c1ncn1nc(CCc3ccccc3)nc21,1.4,0.1,i,2%,1.5,0.69,-1.2
CCCc1cc(=O)[nH]c(SCCN2C(=O)c3ccccc3C2=O)n1,-9.3,-4.2,i,1%,1.3,0.68,0.5
COc1ccc(NC(=S)NC2CCCCC2)c(OC)c1,5.7,-0.9,i,15%,2.0,0.72,3.6
O=C(Cn1ncc2c1-c1ccccc1OC2)Nc1ccc(Cl)cn1,0.0,-7.4,i,?,5.5,0.71,2.6
O=C(Nc1ccc(C(=O)NCC2CCN(Cc3ccccc3F)CC2)cc1)C1=CSCCO1,1.4,0.5,i,·,-2.9,0.69,3.5
Cc1ccc(N(C(=O)Nc2ccccc2)C2=NCCC2)cc1,-0.6,-2.2,i,2%,0.9,0.64,1.7
CC(=O)Nc1ccc(S(=O)(=O)Nc2nc(-c3ccc(C(C)(C)C)cc3)cs2)cc1,·,1.9,·,?,0.5,0.64,2.9
Cc1nccn1CC(=O)N/N=C/c1cccs1,-6.8,0.9,i,4%,-1.6,·,·
Cc1ccc(SCC(=O)OCC(=O)N(CC(C)C)c2c(N)n(Cc3ccccc3)c(=O)[nH]c2=O)c(C)c1,-2.5,-2.7,i,-8%,-0.7,0.72,-1.4
CC(C)NC(=O)C(c1ccc(F)cc1)N(Cc1ccco1)C(=O)CCC(=O)Nc1ccccn1 (centres undefined),-8.0,3.4,i,-9%,-5.3,0.7,5.3
COc1ccccc1CC(=O)N1CCN(S(=O)(=O)c2cccs2)CC1,-3.2,1.6,i,-1%,-2.7,0.72,2.7
CC(=O)/C(=N/Nc1ccccc1Cl)Sc1nnc(C(O)c2ccccc2)n1-c1ccccc1 (centres undefined),·,0.4,·,-7%,4.5,·,·
CCN(CC)CCNC(=O)c1c(C)n(-c2ccccc2)c2cc(Br)c(OC)cc12,·,2.3,·,-2%,2.4,0.64,2.5
S=C(NC1CCCCC1)N(CCc1ccccc1)CCc1ccccc1,·,0.0,·,15%,·,0.68,0.1
O=C1SCC(c2ccc(Cl)cc2Cl)=NN1Cc1nnc(-c2ccccc2)o1,·,2.7,·,-4%,2.2,0.66,2.0
COC(=O)c1ccc(NC(=O)Cn2c(-c3nonc3N)nc3ccccc32)cc1,-0.9,7.8,i,·,8.6,0.62,5.8
O=C(NCc1ccccn1)c1cccc(S(=O)(=O)Nc2ccc(SC(F)F)cc2)c1,0.2,-2.5,i,2%,-1.9,0.69,6.0
COc1cccc(-c2cc(C(=O)Nc3cc(C)n(Cc4ccc(Cl)cc4)n3)no2)c1,2.3,0.4,i,-4%&2%,-4.1,0.69,-5.5
CC1=CC(C)(C)NC(=S)N1c1cccc(Cl)c1,-6.0,0.9,i,0%,·,0.68,0.3
Cc1cccc(NC(=O)CCC2CCN(C(=O)C3CC=CCC3)CC2)c1 (centres undefined),-0.4,3.7,i,·,-0.6,0.7,-0.5
CCOc1ccc(=O)n(-c2ccccc2)n1,·,-4.0,·,23%,2.5,0.69,3.9
CCOC(=O)c1c(C)[nH]c(C(=O)NNC(=O)c2ccc(C(C)(C)C)cc2)c1C,-1.7,-2.3,i,·,-0.4,0.7,1.8
COc1ccc(CCNC(=O)Cn2ccc3c(OC)cccc3c2=O)cc1OC,7.2,0.1,i,-2%,0.0,0.72,-1.0
Cc1cc(C)cc(OCC(=O)O/N=C(\N)c2cccnc2)c1,-0.1,-5.2,i,-2%,8.2,0.64,5.6
O=C(CSc1nc2ncccc2[nH]1)Nc1ccccc1-c1ccccc1,3.8,-0.3,i,2%,2.0,0.64,0.5
COc1ccc(-c2csc(NC(C)=O)n2)cc1OC,·,-0.3,·,-7%,4.7,0.74,7.2
Cc1ccccc1C(=O)NCCN=C1NS(=O)(=O)c2ccccc21,6.2,-3.1,i,4%,5.0,0.7,6.0
Cc1nc2sccn2c(=O)c1S(=O)(=O)NCCc1ccccc1,-10,-1.4,i,·,5.1,0.76,-4.7
Cc1ccc(CS(=O)(=O)Cc2ccc(C(=O)NCc3cccnc3)o2)cc1,·,-3.9,·,4%,?,0.71,4.2
CCOC(=O)c1c(N)nn(C(=O)c2ccccc2F)c1-c1ccc(OC)cc1,-2.0,2.0,i,-3%,7.0,0.72,-0.9
CCC(C)NS(=O)(=O)c1ccc(OCC(=O)NCc2ccccn2)cc1 (centres undefined),-0.9,-3.7,i,·,-1.9,0.67,1.3
CC(C)CNC(=O)CSc1nc(-c2cccs2)cc(C(F)(F)F)n1,·,-1.6,·,-4%,1.9,0.77,-7.1
O=C1NC(=O)C(=CC=Cc2ccccc2)S1,-0.5,3.7,i,3%,·,·,·
O=C(C1CC1)N1CCc2cc(Br)cc(S(=O)(=O)N3CCOCC3)c21,·,2.6,·,-5%,·,0.73,0.7
CNC(=S)NNC(=O)c1sccc1OCc1ccc(C)cc1,·,0.0,·,7%,1.8,0.68,1.0
C[n+]1c(-c2ccc(C=NNC(=O)c3ccc(C(=O)NN=Cc4ccc(-c5cn6ccccc6[n+]5C)cc4)cc3)cc2)cn2ccccc21,78*,·,i,-12%,·,·,·
Clc1ccc(-c2c[n+]3c(n2-c2ccccc2)SCC3)cc1,-0.9,0.8,i,·,0.9,0.71,0.4
CC1CCC(N2CCN(S(C)(=O)=O)CC2)CC1 (centres undefined),·,-3.9,·,0%,5.5,0.69,0.3
CN1CCN(C(=O)CSc2nc(-c3ccncc3)ccc2C#N)CC1,·,1.7,·,13%,-1.9,0.72,-8.1
CCOC(=O)C1=C(C)NC(=O)NC1c1ccc(N(C)C)cc1 (centres undefined),6.2,2.9,i,10%,-0.2,0.7,4.8
O=C(CN(Cc1ccco1)C(=O)c1ccccc1F)Nc1ccccc1C(F)(F)F,7.2,3.1,i,·,·,0.69,3.3
CC(CC(=O)O)NCC1COc2ccccc2O1 (centres undefined),-3.6,-1.2,i,·,6.0,0.68,0.0
COCCNC(=S)N(Cc1cccs1)Cc1cc2cccc(C)c2[nH]c1=O,2.0,4.3,i,·,2.8,0.71,0.3
CCCCC(CC)CNC(=O)CN1C(=O)NC2(CCc3ccccc32)C1=O (centres undefined),0.1,0.1,i,·,-0.3,0.64,4.6
O=C(/C=C/c1ccccc1)COC(=O)c1ccccc1,2.4,-2.3,·,7%,·,0.6,2.9
Cc1ccc2c(c1)N(C(=O)CCC(=O)NC1CCN(Cc3ccccc3)CC1)CC(C)O2 (centres undefined),0.1,0.7,i,·,-1.3,0.71,-1.0
O=C(CCNC(=O)c1ccc(Br)cc1)NCc1ccncc1,?,-6.8,i,-7%,4.2,0.71,2.4
O=c1c2ccccc2nc2ccc(N3CCOCC3)nn12,·,0.2,·,-2%,-1.9,0.71,-0.1
N#Cc1ccc(CSC2=NCCN2)cc1,-0.6,0.8,i,-7%,-1.3,0.64,11
Cc1ccc(Cn2c(C3CCCN3c3nc(C)cs3)nc3cc(C(F)(F)F)ccc32)cc1 (centres undefined),·,6.0,·,·,2.1,·,1.6
Nn1c(SCC(=O)Nc2ccc3c(c2)OCO3)nnc1-c1cccc(Cl)c1,·,2.8,·,5%,·,0.72,1.3
COc1ccc(OC)c(NC(=O)CC2C(=O)NCCN2C(=O)Nc2cccc(Cl)c2)c1 (centres undefined),·,3.1,·,41%,2.9,0.73,0.3
Cc1nnc(NC(=O)CC(CN(C)S(=O)(=O)c2ccccc2)c2ccccc2)s1 (centres undefined),-7.5,5.8,i,-3%,1.9,0.73,0.9
Cc1cccc(C)c1-n1c(C)nn(CC#N)c1=O,-3.6,-3.2,i,0%,-1.4,0.67,1.8
O=C(NCCCN1CCOCC1)C(C(=O)NCCCN1CCOCC1)c1ncc(C(F)(F)F)cc1Cl,0.0,-3.7,i,9%,2.4,0.71,-1.7
CCN1CCN(Cc2cc(=O)oc3ccc(C)cc23)CC1,-1.4,-2.5,i,66%,0.3,0.68,0.3
[O-][n+]1c2cc(C(F)(F)F)ccc2c2n1CCN=C2c1ccc(Cl)cc1,·,1.3,i,·,-0.1,0.64,2.2
O=C(Cc1ccc(Cl)c(Cl)c1)Nc1ccccc1N1CCCC1,0.4,3.4,i,-4%,3.9,0.71,2.2
Cc1cc(C)cc(C(=O)NCCN2CCOCC2)c1,-0.6,-0.3,i,·,-1.8,0.64,4.7
CCCCOc1ccc(C2/C(=C(\O)c3ccc4c(c3)OCCO4)C(=O)C(=O)N2CCCN2CCOCC2)cc1 (centres undefined),2.6,2.9,i,12%,1.9,0.69,6.3

# Of the compounds above, five have a thiophene ring, fused or not:
SMILES,AF4-AF9 inh,HNF4A DNA FP,FGF22 binding,Vif A3G,RanGTP-Impb inh,E coli growth,UCH37 inh
Cc1nccn1CC(=O)N/N=C/c1cccs1,-6.8,0.9,i,4%,-1.6,·,·
COc1ccccc1CC(=O)N1CCN(S(=O)(=O)c2cccs2)CC1,-3.2,1.6,i,-1%,-2.7,0.72,2.7
CC(C)CNC(=O)CSc1nc(-c2cccs2)cc(C(F)(F)F)n1,·,-1.6,·,-4%,1.9,0.77,-7.1
CNC(=S)NNC(=O)c1sccc1OCc1ccc(C)cc1,·,0.0,·,7%,1.8,0.68,1.0
COCCNC(=S)N(Cc1cccs1)Cc1cc2cccc(C)c2[nH]c1=O,2.0,4.3,i,·,2.8,0.71,0.3
